Compound activity from PubChem BioAssay.
miR-21 reporter – raises the signal of a miR-21 reporter; 340,000 tested, under 10 active; HeLa miR-21 FLuc reporter, luciferase, 48 h; AID 2288; Potency, µM (series often up to 38.3 µM), inactives show top-dose reporter change, positive = more light; active = well fitted rising curve with a large enough effect; inconclusive = small, poorly fitted or top-dose-only effect; inactive = no such curve, though single readings can be large or run the other way;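 note: % of control where 0% means no effect; miR-21 action dims this reporter so a rising signal means less miR-21 action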
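HeLa cells stably expressing CMV-driven firefly luciferase with a downstream miR-21 binding sequence, endogenously expressing miR-21, were treated with titrations (up to about 40uM final) for 48 hours at 37 degree Celsius. Luciferase luminescence was read after lysis.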
GLA inh pH 4.5 – blocks human alpha-galactosidase A at pH 4.5; purified enzyme, 4-MU-alpha-Gal fluorescence, pH 4.5; 230,000 tested, under 10 active; activity change, negative = inhibition, % at 105 µM; P06280; inconclusive = small, poorly fitted or top-dose-only inhibition, or a rising curve; inactive = flat fitted curve, though single readings scatter; no compound was filed as active;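 note: 0% = full activity with enzyme and -100% = basal without enzyme; dose as in the result columns while the protocol names 77 µM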
Target sequence (P06280 whole entry, looked up): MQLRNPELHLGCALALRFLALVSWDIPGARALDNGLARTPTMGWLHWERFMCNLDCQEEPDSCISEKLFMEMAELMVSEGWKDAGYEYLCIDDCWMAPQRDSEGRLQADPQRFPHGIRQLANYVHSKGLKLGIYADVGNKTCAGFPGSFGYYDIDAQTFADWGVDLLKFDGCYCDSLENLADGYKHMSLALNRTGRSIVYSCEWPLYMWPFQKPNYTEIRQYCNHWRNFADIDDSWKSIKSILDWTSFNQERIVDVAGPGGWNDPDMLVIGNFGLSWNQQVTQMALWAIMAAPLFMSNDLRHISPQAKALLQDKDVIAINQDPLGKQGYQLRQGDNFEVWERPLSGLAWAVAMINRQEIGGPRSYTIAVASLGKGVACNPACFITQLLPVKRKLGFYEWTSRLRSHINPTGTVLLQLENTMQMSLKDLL
Rango-impB inh – prevents formation of the Rango-importin beta complex; Q14974; Rango CFP/YFP FRET sensor + importin beta, 45 min; Potency, µM (top dose mostly 92.2 µM), for inactives: at the top dose inhibition of complex formation; 340,000 compounds, 0.031% hits; AID 540263; active = rising FRET ratio curve, often small or poorly fitted; inconclusive = mostly compound fluorescence or quenching in the first reads; inactive = flat curves in all reads;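 note: potency is the fitted concentration of half-maximal effect; 0% = DMSO wells and 100% = buffer wells lacking importin beta; nearly all actives have a fitted effect of over 15% in size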
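FRET biosensor Rango (snurportin 1 IBB between N-terminal EYFP and C-terminal Cerulean), 50 nM in PBS/1 mM DTT/0.02% Tween-20/0.1% BSA, preincubated 5 min RT with compound; 0.125 microM importin beta added, 45 min RT, CFP/YFP FRET ratio read.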
Rango release inh – inhibitors of RanGTP-induced Rango-importin beta complex dissociation | O95149+P62826 | Biochemical FRET Rango-importin beta, RanGTP-induced dissociation | Potency, µM (top dose mostly 46.1 µM), inactives show at the highest dose activity change, negative = inhibition | 340,000 compounds, 0.071% hits | AID 540253; active means falling FRET ratio curve, often poorly fitted, with flat reads before Ran was added; inconclusive means other falling curves, or compound fluorescence or quenching; inactive means flat or rising ratio curve;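 note: potency is the fitted concentration of half-maximal effect; % of control where 0% means no effect; nearly all actives have a fitted effect of over 45% in size; -100% = wells without RanGTP and RCC1; the record marks most hits as doubtful in a second field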
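Compounds sat 5 min at room temperature with 0.1 uM Rango biosensor plus 0.25 uM importin beta, then FRET pre-read. RanGTP-RCC1 (0.6 uM Ran, 2mM GTP, 0.2 uM RCC1) added for 45 min, and the CFP/YFP post-read measured blocked complex dissociation.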
* = called active by the depositor; u = inconclusive; x = not tested or not shown; & = joins results of further samples. Not all compounds are listed, so the mix of outcomes need not match the whole.

SMILES	miR-21 reporter	GLA inh pH 4.5	Rango-impB inh	Rango release inh
CCN=C(N/N=C/c1ccc([N+](=O)[O-])cc1)SC	0%	u	3.7%	-8%
CCCCCC(O)(CCN1CCCCC1)c1ccccc1 (stereo unspecified)	0%	x	-2.1%	-1%
Cc1ncc(N=Nc2ccc(F)cc2)c(-c2ccc(Cl)cc2)n1	-10%	-3	-4.1%	-4%
COCC(=O)Nc1cc(C(=O)Nc2ccccc2C)ccc1Cl	-24%	7	-0.6%	3%
O=C(COc1ccc2ccccc2c1)NNC(=O)c1ccc([N+](=O)[O-])cc1	2%	-2	-0.2%	-2%
CCOC(=O)C1CCN(C(=O)COC(=O)CN(C)S(=O)(=O)c2ccc(NC(C)=O)cc2)CC1	x	x	-0.2%	4%
CSc1nc(N(C)NC(=O)c2cccc(C)c2)c2ccccc2n1	26%	1	2.4%	3%
CCC1=C(OC(=O)N(CC)CC)N2C(=O)OC(=NCC3CC3)[C@]2(C)[C@H]2C1=CC[C@H]1C(=O)N(C)C(=O)[C@H]12	-1%	-15&2	-0.8%	1%
COC(=O)c1ccc(S(=O)(=O)NC(C)(C)C)n1C	-7%	10	3.0%	18%
c1ccc(C(c2ccccc2)N2CCN(c3ccc4ccccc4n3)CC2)cc1	-6%	5	-3.1%	11%
CCCC(=O)Nc1ccc(NC(=O)c2cccc(OC)c2)cn1	-10%	x	-0.1%	19%
COC(=O)C1=C(C)N(CC(C)C)C(=O)/C1=C\c1cccs1	-15%	-1	0.5%	4%
COc1ccc(NC(=O)c2sc3nc(C)cc(C)c3c2N)c(OC)c1	x	x	u	u
CC(=O)Nc1nc(C2COc3ccccc3O2)cs1 (stereo unspecified)	-27%	1	-0.8%	25%
COc1cc(C(=O)OCC(=O)N2CCCCCC2)c([N+](=O)[O-])cc1OC	x	x	1.5%	8%
CCNC(=S)NNC(=O)CCc1nc2cc(Cl)ccc2n(Cc2ccccc2)c1=O	-10%	x	0.8%	3%
CCC(C)(C)n1nnnc1C(c1ccc2ncccc2c1)N1CCN(c2ccc(O)cc2)CC1 (stereo unspecified)	-15%	1	-0.6%	0%
Cc1ccc(Cn2c(NS(=O)(=O)c3ccccc3)nc3ccccc32)cc1	-3%	-1	-0.3%	-13%
Cc1nonc1C(=O)N/N=C/c1ccc(O)c(O)c1	-59%	5	-1.7%	28%
N#Cc1ncc(-c2ccc3c(c2)OCCOCCOCCOCCO3)nc1C#N	-3%	0	-0.8%	3%
S=c1[nH]cc(-c2ccccc2)n1-c1ccccc1Cl	-3%	-3	-4.4%	0%
O=C(CSc1nnc(CNC(=O)c2ccccc2)o1)Nc1ccc2c(c1)OCCO2	2%	x	-0.6%	-5%
CCN(Cc1nc2ccccc2c(=O)[nH]1)C(=O)c1cccc(S(=O)(=O)N2CCc3ccccc32)c1	x	x	-5.3%	2%
CCCCOc1ccc(/C=C/C(=O)Nc2ccc(C(N)=O)cc2)cc1	-7%	-2	-4.2%	6%
Cc1nn(CC(=O)N2CCN(S(=O)(=O)c3ccccc3)CC2)c(C)c1[N+](=O)[O-]	x	x	1.0%	6%
O=C(O)c1ccccc1C(=O)c1ccc(Oc2ccccc2)cc1	-21%	11	2.5%	2%
COC(=O)c1ccccc1NC(=O)CSc1nnc(CNS(=O)(=O)c2ccc(C)cc2)n1C	7%	3	2.2%	0%
COc1ccc(Cc2nnc(NC(=O)Cc3cccs3)s2)cc1OC	-9%	1	1.1%	2%
CCN(CC)c1ccc(C=Nc2cccnc2Cl)c(O)c1	-5%	x	u	-17%
COc1cc2nc3c4ccccc4n(CC#N)c3nc2cc1OC	-11%	0	x	x

Results in Rango release inh (two entries from above):
Structure	Rango release inh
Cc1nonc1C(=O)N/N=C/c1ccc(O)c(O)c1	28%
N#Cc1ncc(-c2ccc3c(c2)OCCOCCOCCOCCO3)nc1C#N	3%

Further records
SMILES	miR-21 reporter	GLA inh pH 4.5	Rango-impB inh	Rango release inh
O=C(NC1CCCCC1)c1ccc(-c2cccc([N+](=O)[O-])c2)o1	-73%	x	3.3%	-25%
CCSc1nnc(NC(=O)c2ccccc2C)s1	-55%	3	-0.2%	3%
COc1ccc(S(=O)(=O)Cc2ccc(C(=O)N3CCc4ccccc4C3)o2)cc1	-10%	-11	-4.5%	-3%
COc1cccc(CN(C)CC(=O)Nc2cccc(S(N)(=O)=O)c2)c1OC	-8%	-14	1.0%	-9%
Cc1[nH]c2ccccc2c1SCC(=O)NC1CCCCC1	15%	3	-3.7%	0%
COc1ccc(S(=O)(=O)NCc2ccncc2)cc1NC(=O)c1ccccc1F	x	x	-1.1%	-13%
CCOc1cc(/C=N/NC(=O)CSc2nnc(C)s2)ccc1OCc1ccccc1Cl	-4%	4	-1.5%	-9%
Cc1cccc(-n2ncc3c(N4CCCc5ccccc54)ncnc32)c1	-18%	-1	-4.6%	-1%
CC(=O)COc1nc2c(c(-c3ccco3)c1C#N)CCc1ccccc1-2	-3%	16	u	u
O=C(NC1CCCCCC1)C(=S)NC1CCCCC1	-17%	6	-2.6%	-5%
O=C(O)c1cc(-c2cccs2)nn1-c1ccccc1	-5%	-1	0.3%	5%
Cc1ccc(-c2ccccc2NC(=O)C2C3C=CC(C3)C2C(=O)O)o1 (stereo unspecified)	-1%	1	-8.4%	-40%
O=P(O)(O)C(O)C(F)(F)C(F)(F)C(F)(F)C(F)F (stereo unspecified)	-5%	-19	-4.2%	2%
Cc1ccccc1NC(=S)NCCc1ccccc1	-9%	5	-3.9%	-9%
O=C(c1ccccn1)N1CCN(S(=O)(=O)c2ccc3ccccc3c2)CC1	-2%	-2	-1.8%	11%
CC(C)C(NC(=O)c1c(F)cccc1F)C(=O)NC1CC(C)(C)NC(C)(C)C1 (stereo unspecified)	0%	x	-0.7%	-21%
S=C(NCc1ccccc1)Nc1cccc2ccccc12	-4%	x	0.0%	2%
Cc1cc(OC(=O)N2CCCCC2)cc(C)c1Cl	-8%	5	1.5%	-8%
Cc1cc(Cl)ccc1NC(=S)NCc1ccco1	-4%	2	6.7%	-11%
O=C1C=C(NCc2ccco2)CC(c2ccc(Cl)cc2)C1 (stereo unspecified)	7%	-4	-2.6%	15%
O=C(Nc1ccc(-n2cnnn2)cc1)c1cc(S(=O)(=O)N2CCCC2)ccc1Cl	x	x	1.6%	-6%
COc1ccc(OCCC(=O)N2CCOCC2)cc1	-4%	7	-2.0%	-3%
Cc1cc(Nc2ncc(Cl)cc2Cl)n(-c2ccccn2)n1	0%	-5	-1.3%	-4%
COC(=O)CSc1[nH]c2ccc(Br)cc2c1[N+](=O)[O-]	0%	-5	0.0%	u
O=C(c1ccc(CNS(=O)(=O)c2ccc(Br)cc2)cc1)N1CCCCC1	3%	x	0.1%	-5%
O=C1CCCN1CCCNS(=O)(=O)c1ccc(F)cc1F	3%	-1	-0.1%	-7%
N#Cc1ccc2nc3c(nc2c1)CCCC3	-9%	x	-0.1%	-13%
CCCOc1ccc(C=Nc2ccc(OC)c(S(=O)(=O)N3CCOCC3)c2)c(O)c1	x	x	0.4%	1%
C=CCN(CC=C)Cc1ccc(C(=O)OC)o1	-5%	3	5.8%	10%
Cc1ccn2cc(C(=O)NC3CCN(Cc4ccccc4)CC3)nc2c1	0%	9	-2.9%	8%

Retrieved one by one from the list above, 4 records:
SMILES	miR-21 reporter	GLA inh pH 4.5	Rango-impB inh	Rango release inh
Cc1ccn2cc(C(=O)NC3CCN(Cc4ccccc4)CC3)nc2c1	0%	9	-2.9%	8%
COC(=O)CSc1[nH]c2ccc(Br)cc2c1[N+](=O)[O-]	0%	-5	0.0%	u
N#Cc1ccc2nc3c(nc2c1)CCCC3	-9%	x	-0.1%	-13%
Cc1cc(Nc2ncc(Cl)cc2Cl)n(-c2ccccn2)n1	0%	-5	-1.3%	-4%

Next results:
SMILES	miR-21 reporter	GLA inh pH 4.5	Rango-impB inh	Rango release inh
COc1ccccc1OCC(=O)NCCS(=O)(=O)N1CCN(c2ccccc2)CC1	x	x	-0.1%	10%
O=S(=O)(c1ccccc1)C1CON(Cc2ccccc2)C1c1ccccc1 (stereo unspecified)	-2%	-1	u	-2%
Cn1c(SCC(=O)Nc2ccc(NC(=O)c3ccccc3F)cc2)nnc1-c1ccncc1	-13%	x	0.4%	-10%
CC(=N[C@@H]1CCCC[C@H]1N=C(C)c1ccccc1O)c1ccccc1O	-1%	6	5.7%	7%
COc1ccc(NC(=O)CNC(=O)c2nn(-c3ccc(OC)c(OC)c3)c(=O)c3ccccc23)c(OC)c1	2%	x	u	4%
COC(C[C@@H]1O[C@@H]1[C@H](O)[C@H](C)OCc1ccccc1)OC	-1%	-1	0.1%	10%
COCCNC(=O)C(c1cccs1)N(C(=O)Cn1nnc2ccccc21)c1ccc(OC)cc1 (stereo unspecified)	-3%	-2	0.6%	-15%
CCOC(=O)c1cc(-c2csc(Nc3c(C)cc(C)cc3C)n2)on1	-7%	-16	-0.3%	1%
COc1ccc(CCN2C(=S)N(C)C(=O)C2CC(=O)Nc2ccc(F)cc2)cc1 (stereo unspecified)	21%	-5	2.9%	5%
COc1ccc(N(CC(=O)NCc2ccc(Cl)cc2)S(=O)(=O)c2c(C)nn(C)c2C)cc1	0%	x	-3.2%	4%
COc1ccccc1OCCSc1nc(C)c(Cc2ccccc2)c(=O)[nH]1	8%	5	-0.2%	5%
O=c1ccc2ccc(O)cc2o1	x	u	u	u
CC1CC(CC(=O)NNc2nc(-c3ccccc3)cs2)C(=O)O1 (stereo unspecified)	-11%	-4	0.5%	-7%
CCOc1ccc(OCC)c(NC(=O)CCSCCc2ccccn2)c1	-1%	-2	-5.3%	2%
CN(C)c1nc(N)c([N+](=O)[O-])c(NCCO)n1	-2%	-5	-5.7%	2%
Cc1csc(NC(=O)c2ccc(COc3ccccc3)o2)n1	-19%	x	-0.4%	1%
N/C(=N\OC(=O)CCC1CCCC1)c1cccc([N+](=O)[O-])c1	-10%	2	1.1%	-4%
CC(C)N(C(=O)COC(=O)c1ccccc1C(=O)N1CCN(c2ccc(F)cc2)CC1)C(C)C	1%	-6	-1.5%	2%
CN1C(=O)Cc2cc(S(=O)(=O)N3CCN(c4ccccc4F)CC3)ccc21	2%&-8%	x	-2.5%	7%
COc1ccccc1N1CCN(C(=O)C2CCCN(S(=O)(=O)c3ccc4c(c3)CCCN4C(C)=O)C2)CC1 (stereo unspecified)	u	x	-6.2%	3%
COc1ccc(C(=O)NC2CC2)cc1OC1CCN(Cc2ccc(F)c(F)c2)CC1	-7%	x	0.6%	8%
COC(=O)c1ccnc(/C=N/O)c1	-5%	-8	-2.7%	-4%
CCc1nc(N2CCN(c3nc(C)cc(C)n3)CC2)c2oc3ccccc3c2n1	-4%	5	x	x
CCOc1cc(C)nc(N2CCC(C(=O)Nc3ccccc3OCC)CC2)n1	-7%	-2	5.5%	18%
COc1ccc(C(=O)C(CN2CCCC2)c2ccccc2)cc1 (stereo unspecified)	u	-3	1.0%	-7%
COc1ccc(S(=O)(=O)NC(C)C(=O)Nc2cccc(C(C)=O)c2)cc1 (stereo unspecified)	-1%	1	-1.5%	10%
COC(=O)C1(CC2CC(c3ccccc3)=NO2)CCN(C(=O)OC(C)(C)C)CC1 (stereo unspecified)	x	x	-4.1%	u
c1ccc([C@H]2CC3C[C@@H](c4ccccc4)N2O3)cc1	-5%	7	1.3%	20%
O=S(=O)(NCc1ccccc1F)c1cccc(S(=O)(=O)N2CCOCC2)c1	1%	6	1.3%	-16%
Cc1cc(F)ccc1S(=O)(=O)N1CCCOC1CNC(=O)C(=O)NCC(C)C (stereo unspecified)	-1%	x	-1.4%	-10%
COc1ccc(NC(=O)CN(C)CC(=O)Nc2cccc(C(F)(F)F)c2)cc1	-6%	-15	0.0%	27%
COc1ccc(NS(=O)(=O)c2ccc(C)c(C(=O)N(C)Cc3ccc(C)cc3)c2)cc1	x	x	1.1%	8%
Nn1c(COc2ccc(Cl)cc2)n[nH]c1=S	-1%	-3	-0.1%	7%
Cc1cc(NC(=O)c2ccc(C#N)cc2)n(-c2ccccc2)n1	x	x	-6.7%	4%
